# Assay outcomes from PubChem.
# S aureus helic – blocks Staphylococcus aureus DNA helicase; purified S. aureus helicase, fluorescence unwinding assay; about half of the hits fall short of the stated cut; inhibition, %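 (tested at about 80 µM)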; 0.05% of 120,000 active; AID 485395;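 active = both duplicates at 50% or more, or one of them with a favoured structure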;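 also: 0% = mean of negative control wells and 100% = mean of positive control wells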
# MgrA DNA FP – modulators of Staphylococcus aureus MgrA DNA binding | 0.13% of 84,000 active | fluorescence polarization | inhibition, %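 (about 10 µg/mL by stock and volumes)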 | AID 602314;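 active = above 50% in either of two replicates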;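 also: 0% = protein plus DNA without compound and 100% = DNA alone without protein; higher means less MgrA bound to DNA so lower polarization; one replicate is shown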
# * hit, by the source's call; · = not tested or not shown; & = joins results of further samples. Some of the compounds tested, so the mix of outcomes need not match the whole.
smiles,S aureus helic,MgrA DNA FP
CCS(=O)(=O)C1=NSC2=NC(=O)/C(=C\c3ccco3)C(=N)N21,3,·
Nc1nc(CC(=O)c2ccccc2)cs1,6,·
O=C(Nc1ccc(Oc2cccnc2)nc1)c1ccc(C(F)(F)F)cc1,·,-1.4
O=S(=O)(c1ccc(Cl)cc1)N(Cc1ccccc1)S(=O)(=O)c1ccc(Cl)cc1,·,-0.2
O=C(OC1CCSC1)c1cc(C(F)(F)F)cc(C(F)(F)F)c1 (centres undefined),·,0.1
CCNc1nc(SCCOc2ccccc2)nc(N(C)C)n1,18,·
COc1ccc(CC(=O)N/N=C2/CC(=O)CC(C)(C)C2)cc1,-34,·
COCCNCc1ccccc1,-12,·
CCn1c(-c2ccc3c(c2)OCCO3)cnc1SCC(=O)Nc1ccccc1C(=O)NC1CC1,8,·
CCOC(=O)c1cnc2ccc(OCC)cc2c1NCCN(C)C,25,-3.7

# The results go on:
smiles,S aureus helic,MgrA DNA FP
Cc1cccc(C)c1NC(=O)C1CCCN(Cc2ccccc2)C1 (centres undefined),6,·
O=C(NCCc1ccccc1)C1CCN(c2nnc(-n3cccc3)s2)CC1,7,·
O=C1OC(c2ccc3c(c2)CCC3)c2ccccc21 (centres undefined),·,0.2
O=C1CCC(C(=O)NC2CCCCCC2)=NN1,-12,·
Cc1c(C(=O)OCC(=O)N(C)C2(C#N)CCCCC2)oc2ccc(Br)cc12,-2,·
CC1CCC(NS(=O)(=O)c2ccc3c(c2)oc(=O)n3C)CC1 (centres undefined),5,-0.8
CCOC(=O)c1oc2ccccc2c1COC(=O)c1ccc(S(=O)(=O)N2CCCC2)cc1,-7,·
CCOC(=O)c1c(C)csc1NC(=O)Nc1c(Cl)cccc1Cl,·,-1.7
O=C(/C=C/c1cn(-c2ccccc2)nc1-c1cc2ccccc2o1)N1CCOCC1,0,·
COc1ccc(N2C(=O)CS/C2=N/S(=O)(=O)c2ccc(F)cc2)cc1,17,·

# (listing goes on)
smiles,S aureus helic,MgrA DNA FP
NC(=O)N/N=C(/C=C/c1ccccc1)C1(O)CCCCC1,-32,·
Cc1ccc(NC(=O)N2CCC(CN3CCOCC3)CC2)cc1F,18,·
O=C(NCC1COc2ccccc2O1)c1cn(-c2ccc(F)cc2)nn1 (centres undefined),-23,·
O=C(O)c1c[nH]c(=O)c2ccccc12,·,-3.3
O=C(c1ccccc1O)N1N=C(C(F)(F)F)CC1(O)C(F)(F)F (centres undefined),11,2.6
Cc1cc(C)c(O)c(N)c1,4,5.8
Cc1n[nH]c(=O)c2c1nnn2Cc1ccccc1F,-18,·
O=C(Nc1nc2ccc3ccccc3c2s1)c1cccs1,-20,·
O=C(NCc1ccccc1)c1ccc2cn[nH]c2c1,-5,·
C=CCN1C(=O)C2(C(C#N)=C(N)Oc3n[nH]c(COC)c32)c2ccccc21 (centres undefined),6,3.5

# Next section.
smiles,S aureus helic,MgrA DNA FP
O=C(O)/C(=C/c1ccc2c(c1)OCO2)NC(=O)c1ccccc1Br,7,1.1
c1ccc2c(NCCCN3CCOCC3)c3c(nc2c1)CCC3,9,·
O=C(c1ccccc1/S(=N/S(=O)(=O)c1ccccc1)N1CCOCC1)N1CCOCC1 (centres undefined),0,-2.6
COc1ccccc1COn1c(=O)c(-c2ccco2)[n+]([O-])c2ccccc21,4,7.8
CCC(C)Nc1nc(OC(C(F)(F)F)C(F)(F)F)nc(N(CC)CC)n1 (centres undefined),4,-0.8
O=C(NCc1ccccc1)c1cccc(Cl)c1,-27,·
CCOC(=O)c1cc2c(=O)[nH]c3ccccc3c2s1,34,·
Cc1ccc(S(=O)(=O)NCCOc2nc(N3CCOCC3)nc(N3CCOCC3)n2)cc1,9,·
COC(=O)C12CC3CC(C)(CC(C)(C3)C1)C2,-15,-0.4
Cc1noc(C)c1C(=O)N1CCC(C(=O)c2ccc(F)cc2F)CC1,·,1.6

# Further structures follow:
smiles,S aureus helic,MgrA DNA FP
Cc1ccc(-c2cc(C(=O)OCC(=O)Nc3nc(C)c(Cl)cc3Cl)c3ccccc3n2)o1,-4,·
CCCC(=O)Nc1ccc(OCC(O)CNC(C)C)c(C(C)=O)c1 (centres undefined),·,-1.2&3.4
CC1CCc2sc(NC(=O)COc3ccc(Cl)cc3)c(C(N)=O)c2C1 (centres undefined),19,·
CC(=O)Nc1ccc(N2CC(C)(C)C2=O)cc1,·,0.4
O=C1CCCC2=C1C(c1ccccn1)C1=C(CCCC1=O)O2,-25,·
CC(C)C1O/C(=N\C(=O)Nc2ccc(Cl)c(Cl)c2)NC1=O (centres undefined),-3,·
c1ccc(-c2nc3cc(NCc4cccnc4)ccc3o2)cc1,10,-2.6
CC1(C)CC(=O)C2=C(C1)OC(c1ccc(I)o1)C(C#N)=C2N (centres undefined),-32,·
CC1(C)Cc2[nH]c(=O)c(C#N)cc2CS1,8,-1.6
NNS(=O)(=O)c1ccc(OC(F)(F)F)cc1,·,-0.6

# (listing goes on)
smiles,S aureus helic,MgrA DNA FP
C=C1SC(Nc2ccccc2Cl)=NC1(C)C,·,3.6
CCNC(=O)N1CCN(C(=O)NCC)CC1,1,1.4
N#CCn1c(=O)n(C2CCCCC2)c(=O)c2cccnc21,5,0.6
COCC(C)n1c(COc2ccccc2F)nnc1SCc1nc2ccccc2s1 (centres undefined),-9,·
CC1Cc2ccccc2N1C(=O)C1CCCN1S(=O)(=O)c1ccc(Cl)cc1 (centres undefined),7,·
CC(C)CN(C(=O)CSC1=Nc2ccccc2C2CC=NN12)C1CCS(=O)(=O)C1 (centres undefined),8,·
CCN(CC)C(=O)c1cc(-c2cccs2)nc2c1c(C)nn2-c1ccccc1C,7,·
COc1ccccc1OCCSc1nnnn1C1CCCCC1,6,0.2
Cc1ccc(Cn2c(C3CC3)nc3ccc(N)cc3c2=O)cc1,5,-1.9
COCCNc1nnc(SCC(=O)c2ccc3c(c2)OCO3)s1,21,·

# The listing continues.
smiles,S aureus helic,MgrA DNA FP
CCCCn1nnnc1COC(=O)c1ccccc1SCc1c(C)noc1C,-10,·
CC(Sc1nc2ccccc2o1)C(N)=O (centres undefined),-4,·
CCOC(=O)/C(C#N)=C/Nc1ccccc1,-2,·
COc1ccccc1NC(=O)COc1ncnc2ccccc12,13,·
CCN1C(=O)/C(=C/C=C2/CCCN2C)N(c2ccccc2)C1=S,-7,-6.0
O=C(Nc1ccc(N2CCOCC2)cc1)c1nc2ccccc2s1,12,-3.1
CC1CN(c2ccnc3cc(Cl)ccc23)CC(C)O1 (centres undefined),-6,·
Cc1cccc(CN2C(=O)c3ccccc3Sc3ccc(C(=O)NC(C)C)cc32)c1,9,4.7
CCOc1ccc(S(=O)(=O)N(Cc2ccco2)Cc2ccccc2C#N)cc1,0,·
Cc1ccc(S(=O)(=O)c2c[nH]c3ccccc3c2=O)cc1,-6,·

# More entries follow.
smiles,S aureus helic,MgrA DNA FP
COc1ccc(OC)c(C2Nc3ccc4ncccc4c3C3=C2C(=O)CCC3)c1 (centres undefined),3,·
O=S(=O)(NC(c1ccccc1)c1nnc(-c2ccccc2)o1)c1ccc(F)cc1 (centres undefined),2,·
O=C1OC(c2ccccc2)C(Cl)=C1Cl (centres undefined),·,-3.8
Cc1cc2c(cc3c(=O)n(CC(=O)N4CCc5ccccc5C4)ncn32)s1,16,·
Cc1ccc(N(CC(O)Cn2c3ccccc3c3ccccc32)S(=O)(=O)c2ccccc2)cc1 (centres undefined),9,0.1
CC(C)C1Oc2cc3oc(=O)ccc3cc2/C1=N\O (centres undefined),11,4.7
COc1ccc(CN(C)CN2C(=O)NC3(CCC(C(C)(C)C)CC3)C2=O)cc1 (centres undefined),-14,·
CCOC(=O)c1c(CC(C)C)csc1NC(=O)C(C)C,-21,-1.1
CC1CCCC(C)N1C(=O)Cc1cccs1 (centres undefined),1,3.0
COc1nc(NCCO)nc(Nc2ccccc2F)n1,2,0.8

# Five entries already listed, ordered by their value in S aureus helic, largest number first.
smiles,S aureus helic,MgrA DNA FP
CC(C)C1Oc2cc3oc(=O)ccc3cc2/C1=N\O (centres undefined),11,4.7
Cc1ccc(N(CC(O)Cn2c3ccccc3c3ccccc32)S(=O)(=O)c2ccccc2)cc1 (centres undefined),9,0.1
COc1nc(NCCO)nc(Nc2ccccc2F)n1,2,0.8
CC1CCCC(C)N1C(=O)Cc1cccs1 (centres undefined),1,3.0
CCOC(=O)c1c(CC(C)C)csc1NC(=O)C(C)C,-21,-1.1

# Next part:
smiles,S aureus helic,MgrA DNA FP
O=C1C(c2ccccc2)CCCC1c1ccccc1 (centres undefined),·,-0.3
COc1cc(/C=C(\C#N)C(=O)C(C)(C)C)ccc1O,-124,·
O=C(Nc1c(-c2ccc(F)cc2)nc2ccccn12)c1ccccc1,9,3.2
CCC(=O)Nc1ccc(-n2cnnn2)cc1,-6,·
Cc1ccc(Cl)cc1N1CCN(C(=O)C2CCCN2S(=O)(=O)c2cccc3nsnc23)CC1 (centres undefined),13,·
C=CCSc1nnc(NC(=O)CCNS(=O)(=O)c2ccccc2)s1,-7,·
CC(C)N(CCc1ccncc1)C(=S)NC1CCCCC1,10,-0.6
O=S(=O)(c1cccc2c(Cl)cccc12)N1CCCNCC1,·,1.1
C=CCC(C(=O)N1CCc2ccccc21)C(=O)N1CCc2ccccc21,·,-0.9
COc1ccc(OC)c(/C=N/c2ncn[nH]2)c1,-3,3.2

# Continuation.
smiles,S aureus helic,MgrA DNA FP
CCOC(=O)Cn1c(C)cc(=O)c2cccc(C)c21,-16,·
O=C(c1cc2c(s1)-c1ccccc1OC2)N1CCCCC1,6,·
CC(=O)N1c2ccc(F)cc2C(C)CC12CCCC2 (centres undefined),10,0.1
CCOC(=O)C1C(=O)C=C(c2ccco2)CC1c1ccc(N(C)C)cc1 (centres undefined),-12,·
Cn1c(=O)oc2cc(S(=O)(=O)CCC(=O)O)ccc21,-15,·
CC(C)(O)C(=O)CCc1ccccc1,10,3.5
CNC(=O)c1ccccc1NC(=O)C1=CSCCO1,-10,·
Cc1cc2c(cc(C(=O)OC(C(=O)NC3CCCCC3)C(C)C)n2C)o1 (centres undefined),9,1.9
CN(C)C(=O)CCCOc1ccccc1,6,-0.6
O=C(CSc1nnc(CN2CCCCC2)o1)Nc1c(Cl)cc(Cl)cc1C(=O)O,10,·

# Reformatted field by field: part of the list above
CCC(=O)Nc1ccc(-n2cnnn2)cc1
  S aureus helic: -6 | MgrA DNA FP: ·
Cc1ccc(Cl)cc1N1CCN(C(=O)C2CCCN2S(=O)(=O)c2cccc3nsnc23)CC1 (centres undefined)
  S aureus helic: 13 | MgrA DNA FP: ·
C=CCSc1nnc(NC(=O)CCNS(=O)(=O)c2ccccc2)s1
  S aureus helic: -7 | MgrA DNA FP: ·

# (cont.)
smiles,S aureus helic,MgrA DNA FP
COc1ccc(OCCSc2nc3ccccc3n2C)cc1,1,1.5
CNC(=S)N(C)CCc1ccc(OC)c(OC)c1,-5,·
Cc1cc(C(=O)C(C)Sc2nnc(N)s2)c(C)n1-c1ccc(Cl)cc1 (centres undefined),-12,·
CNC(=O)CCN1C(=O)c2cccnc2Sc2ccccc21,-17,·
Cc1ccc(CN(C)Cn2nc(-c3c[nH]c4ccccc34)n(-c3ccc(Cl)cc3)c2=S)o1,10,·
Cc1ccc(CSc2nnc(-c3csc(C)n3)n2C)cc1,·,0.6
Cc1nnsc1-c1nc(CSc2ccccn2)no1,·,-1.6
CC(C)(C)OC(=O)N1CCCC(C(=O)O)C1 (centres undefined),-7,·
O=C(CSc1nnc2n1CCCCC2)N1CCCC1c1ccc2c(c1)OCCCO2 (centres undefined),1,·
O=C(O)c1ccc(S(=O)(=O)N2CCCC3CCCCC32)cc1 (centres undefined),12,-1.6

# (continued)
smiles,S aureus helic,MgrA DNA FP
C=C(C)c1ccccc1NC(=O)Cn1c(=O)sc2ccccc21,-29,·
NC1=NC(=O)CC(C(=O)Nc2cccc3ccccc23)S1 (centres undefined),6,30
COc1ccccc1N1CCN(CCCNS(=O)(=O)c2ccc(-c3cc(C)no3)s2)CC1,5,·
CCOC(=O)c1oc2ccccc2c1Cn1cc(S(=O)(=O)N2CCCC2)ccc1=O,1,·
O=C(COC(=O)C1CCCCN1S(=O)(=O)c1ccccc1)Nc1ccc(OC(F)F)cc1 (centres undefined),-4,·
O=C(O)Cc1ccc(OC(F)(F)F)cc1,·,-4.6
Cc1ccc(-n2nc(C)cc2/N=C/N(C)C)cc1,-16,·
O=C(O)Cn1ccnc1,-2,-3.8
COC(=O)COc1ccc(S(=O)(=O)Nc2cc(OC)ccc2OC)cc1,-2,-1.2
COc1ccccc1NC(=O)NC1(C(=O)N2CCc3ccccc32)CCCCC1,-1,-3.4

# Single records (already shown). Order of values: S aureus helic	MgrA DNA FP
# CCOC(=O)c1oc2ccccc2c1Cn1cc(S(=O)(=O)N2CCCC2)ccc1=O as listed: 1	·
# O=C(O)Cn1ccnc1 as listed: -2	-3.8
# Cc1ccc(-n2nc(C)cc2/N=C/N(C)C)cc1 as listed: -16	·

# The list continues.
smiles,S aureus helic,MgrA DNA FP
O=C(NC1CCCCC1)N(Cc1ccccc1)Cc1cc2cc3c(cc2[nH]c1=O)OCCO3,3,-1.4
CCOc1cc(C(=O)OCC(=O)c2c(C)[nH]c3ccccc23)ccc1OCC(=O)N1CCOCC1,0,·
COc1ccc(C2=CC(=C(C#N)C#N)c3cc4c(cc3O2)OCO4)cc1,-37,·
CC(=O)N1CCN(C(=O)CNc2cc(C(F)(F)F)ccc2OCC(F)(F)F)CC1,-10,-1.7
O=C(O)CCNC(=S)Nc1ccc(F)c(Cl)c1,·,-0.2
N#Cc1ccc(Cl)cc1NC(=O)CSC(=O)c1ccccc1,-21,2.3
CCOC(=O)c1ccc(-n2cnc3c2C(=O)c2ccccc2C3=O)cc1,7,·
